# Assay outcomes: PubChem BioAssay, several laboratories
# Arbovirus inh = arbovirus infection inhibition; arbovirus infection cell-based antiviral screen; inhibition, % at 10 µM; hit rate 0.37% among 200,000;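 active = inhibition from about 30%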;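 note: bluetongue infection of BSR cells; cell survival read as ATP light after 72 h; 0% = infected wells without compound and 100% = uninfected wells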
# YopH inh = inhibitors of Yersinia enterocolitica YopH tyrosine phosphatase; fluorescence Ex485/Em525; inhibition, %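 (about 10 µM by stock and volumes)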; hit rate 0.16% among 140,000; AID 898;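 active = inhibition of 50% or more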;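 note: controls were vehicle for no effect and minimum signal wells for full effect; inactives centre near -20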
# Mtb betalactam = beta-lactam sensitization of Mtb H37Rv | M. tuberculosis H37Rv growth with meropenem, percent inhibition; hits of this screen are not shown here | inhibition, % at 25 µM | hit rate 0.27% among 330,000 | AID 434955;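 active = about 74% or more and at least 40 points above the plate without the antibiotic, then above 30% in a dose series; inconclusive = first-round hits that could not be retested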;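 note: growth measured after seven days incubation then overnight dye step; 0% = bacteria only wells and 100% = bacteria with antibiotic; twin plates without the antibiotic show which effects depend on it; some results filed as inactive read as strong as hits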
# Mtb H37Rv = M. tuberculosis H37Rv growth inhibitors, H37Rv strain (AID 1626); M. tuberculosis H37Rv growth inhibition; higher % means a stronger effect; inhibition, % at 10 µM; hits with a dose series show IC50 in µM; hit rate 0.95% among 220,000;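 active = confirmed in a dose series; inconclusive = inhibition above 80% but not taken into the dose series; inactive = below 80% or under 30% at every dose of the series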;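 note: bacteria incubated seven days before Alamar blue readout; 0% = bacteria only wells and 100% = bacteria with antibiotic wells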
# RecA intein inh = Mtb RecA intein splicing inhibition. P9WHJ3. cell-free RecA intein splicing, fluorescence. inhibition, %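 (about 9 µM by stock and volumes)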. hit rate 0.75% among 290,000. AID 2221; in the data active = inhibition above about 30%; inconclusive = no clear call, values can overlap the other calls;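 note: 0% = vehicle wells and 100% = reference inhibitor control wells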
# Target sequence (P9WHJ3 whole entry, looked up): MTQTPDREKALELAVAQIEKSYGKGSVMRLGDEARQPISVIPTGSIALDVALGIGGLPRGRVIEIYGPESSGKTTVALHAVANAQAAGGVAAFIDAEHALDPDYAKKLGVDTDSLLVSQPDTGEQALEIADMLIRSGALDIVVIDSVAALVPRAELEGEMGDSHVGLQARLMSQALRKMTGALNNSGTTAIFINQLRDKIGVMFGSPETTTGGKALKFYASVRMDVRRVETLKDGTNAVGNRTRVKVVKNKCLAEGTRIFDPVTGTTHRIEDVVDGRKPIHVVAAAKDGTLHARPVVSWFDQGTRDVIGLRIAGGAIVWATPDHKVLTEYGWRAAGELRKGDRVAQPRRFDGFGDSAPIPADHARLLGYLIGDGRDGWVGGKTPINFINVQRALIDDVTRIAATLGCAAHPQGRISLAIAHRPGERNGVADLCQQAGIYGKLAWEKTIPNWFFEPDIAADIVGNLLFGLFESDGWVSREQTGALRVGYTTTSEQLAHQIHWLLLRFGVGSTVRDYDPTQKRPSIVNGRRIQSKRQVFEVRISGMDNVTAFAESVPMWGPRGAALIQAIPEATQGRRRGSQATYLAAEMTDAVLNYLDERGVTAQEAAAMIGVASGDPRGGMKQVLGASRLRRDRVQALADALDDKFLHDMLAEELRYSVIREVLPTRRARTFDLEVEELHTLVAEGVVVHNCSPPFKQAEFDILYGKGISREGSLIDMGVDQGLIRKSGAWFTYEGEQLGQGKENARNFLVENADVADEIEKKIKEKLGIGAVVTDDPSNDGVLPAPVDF
# Arbovirus inh repeat = second read-out of Arbovirus inh, no call of its own (marks repeat the call); inhibition, %; measured here: 10K subset replicate screen; many hits read low in the repeat;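 first of two repeat runs on a subset; 0% = infected and 100% = uninfected wells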
# * marks the source's active call; other numbers are inactive results; ? = inconclusive; nt = no result given. Only part of the results is shown, so the mix of outcomes need not match the whole.
SMILES,Arbovirus inh,YopH inh,Mtb betalactam,Mtb H37Rv,RecA intein inh,others
Cc1c(NC(=O)c2cnn3c2NC(c2ccccc2)CC3C(F)(F)F)c(=O)n(-c2ccccc2)n1C (configuration not stated),5,-36,65,2%,1.4,
O=C(NC(=S)NCC1CCCO1)c1cccs1 (configuration not stated),-8,-31,1,1%,-1.1,
Cc1nnsc1NC(=O)OCc1ccc(C(F)(F)F)cc1,-24,-34,1,5%,-25,
CC1(OC(=O)C2CCCC2)C(=O)C=C2C=C(c3ccsc3)N(CCc3ccccn3)C=C2C1=O (configuration not stated),nt,nt,11,10%,8.2,
CC(=O)N1CCN(c2ccc(NC(=O)c3ccc(C(C)(C)C)cc3)cc2)CC1,-12,-10,11,-6%,-3.3,
CC(C)Cc1nnc(NC(=O)CCC(=O)Nc2ccc(Cl)cc2)s1,nt,nt,2,nt,-0.2,
CC1=Nc2cc(C(=O)NCCCOC(C)C)ccc2Sc2ccc(C)cc21,-11,nt,1,-1%,1.8,
C=CCn1c(=O)c2c(nc3n2CC(C)CN3CCc2ccccc2)n(C)c1=O (configuration not stated),nt,nt,3,nt,4.9,
O=C(CCCCCN1C(=O)c2ccccc2C1=O)NCc1ccccn1,9,-48,0,-5%,-0.1,
Cc1ccc(S(=O)(=O)NC(C)C(c2cccs2)N2CCN(c3ccccc3)CC2)cc1 (configuration not stated),-2,-1,-8,8%,16,
Cc1nn(-c2ccccc2)nc1C(=O)Nc1ccc2c(c1)OCCO2,nt,nt,-6,nt,5.2,
Cc1cccc(NC(=O)CC2C(=O)NCCN2C(=S)Nc2ccccc2)c1 (configuration not stated),15,-18,2,5%,nt,
COc1ccc(CC(=O)NNc2ncnc3c2cnn3-c2ccc(C)cc2)cc1OC,-12,-16,-6,4%,4.2,
Cc1ccc(S(=O)(=O)NNC(=O)CCC(=O)Nc2ccccc2)cc1,2,-3,5,0%,0.8,
CC(C)(C)Sc1ccc([N+](=O)[O-])cc1C(=O)Nc1ccncc1,nt,nt,25,-10%,0.9,
Cc1ccc(C=NCc2ccncc2)c(O)c1,-2,-38,-2,-3%,-2.6,
CCn1cc(/C=C(\NC(=O)c2ccccc2F)C(=O)N2CCOCC2)c2ccccc21,nt,nt,5,nt,-1.1,
Cc1onc(-c2ccc(Cl)cc2)c1-c1ccnn1S(=O)(=O)c1cccc(C(F)(F)F)c1,nt,nt,12,4%,18,
COc1cccc(Oc2cc(NN3CCCCC3)c([N+](=O)[O-])cc2[N+](=O)[O-])c1OC,nt,nt,-8,nt,0.6,
O=C(c1ccccc1F)N1CCCC(C(=O)N2CCc3ccccc3C2)C1 (configuration not stated),nt,nt,-3,-2%,4.2,
O=C(Cn1nnc(-c2ccc(OCc3ccccc3F)cc2)n1)N1CCOCC1,-12,-25,-19,-13%,-0.6,
O=C(/C=C/c1ccccc1)NCCSCc1ccccc1Cl,-2,-7,65,4%,13,
CN(C(=O)Cn1cccc1C1=NC(c2ccccc2)CO1)c1ccccc1 (configuration not stated),-16,nt,-2,6%,-1.8,
O=C(O)C1C2C=CC(C2)C1C(=O)Nc1cccc(C(F)(F)F)c1 (configuration not stated),nt,nt,-9,nt,-3.6,
O=C(/C=C/c1ccccc1)Nc1ccc2c(c1)OCCO2,1,nt,3,-6%,5.6,
CN(Cc1ccco1)C(=O)C1CCN(c2nnc(-n3cccc3)s2)CC1,nt,nt,53,nt,-11,
Cn1c(N)c(C(=O)COC(=O)CCOc2ccc(C(C)(C)C)cc2)c(=O)n(C)c1=O,-3,nt,-3,-6%,2.4,
O=C1c2ccccc2C(=O)c2[nH]c(=O)[nH]c21,nt,nt,100,nt,-1.6,
COc1ccc(Cn2nnc3ccccc32)cc1,nt,nt,-3,nt,0.9,
Cc1nc2sccn2c(=O)c1S(=O)(=O)NCc1ccccc1,nt,nt,4,nt,1.3,
NC(=O)C1CCN(C2OC(=O)c3ccccc32)CC1 (configuration not stated),-1,-32,6,0%,-1.1,
CCc1ccc(N(C(=O)c2csnn2)C(C(=O)NC(C)(C)C)c2ccncc2)cc1 (configuration not stated),4,8,-10,-4%,-2.8,
COCc1nnc(NC(=O)c2sc3ccccc3c2Cl)s1,1,15,7,-3%,1.0,
CCC1CCCCN1CCNC(=O)C1CCCN(S(=O)(=O)c2cccc3nsnc23)C1 (configuration not stated),nt,nt,-3,nt,-10,
Cc1ccc(NC(=O)CCCn2c(=O)[nH]c3ccsc3c2=O)cc1,nt,nt,-1,nt,1.3,
Cc1ccc(C)c(C(=O)COc2ncnc3ccccc23)c1,1,nt,4,1%,-4.5,
O=c1ccc(-c2ccc(S(=O)(=O)Nc3cccc(Br)c3)o2)n[nH]1,nt,nt,-2,nt,-0.4,
Cc1csc(/C(=N\O)c2csc(C)n2)n1,-1,-32,3,-1%,-1.1,
CC(C)Cc1nnc(NC(=O)CCC(=O)NC2CCCCC2)s1,nt,nt,6,nt,-1.4,
CN(c1ccccc1C(=O)Nc1cccc(C(F)(F)F)c1)S(C)(=O)=O,0,16,0,0%,1.7,
COc1ccc(/C(O)=C2/C(=O)C(=O)N(CCCN3CCOCC3)C2c2ccc(OC)cc2)cc1 (configuration not stated),nt,nt,-8,nt,-5.9,
CCOc1ccccc1NC(=O)NC1(C(=O)N2CCN3CCCC3C2)CCCCC1 (configuration not stated),0,-14,-7,-8%,-2.9,
CCC(c1nnnn1C1CCCC1)N1CCN(Cc2ccccc2)CC1 (configuration not stated),10,-17,-12,-5%,3.2,
CN(CC(=O)OCC(=O)c1c(N)n(C)c(=O)n(C)c1=O)S(=O)(=O)c1ccc(Cl)cc1,0,-9,-3,1%,-1.1,
COc1ccc2c(C)nc(Nc3nc(C)c(C)c(=O)[nH]3)nc2c1,-25,-33,100,3%,0.4,
CC(=O)c1ccc(NS(=O)(=O)c2cccc(C)c2)cc1,8,-35,-16,-2%,-7.0,
COc1ccc(N2CC(C(=O)Nc3c4c(nn3-c3ccccc3)CS(=O)(=O)C4)CC2=O)cc1 (configuration not stated),nt,nt,10,nt,-0.9,
COc1ccccc1N1CCN(C(=O)C2C3C=CC4(CN(Cc5ccccc5Cl)C(=O)C24)O3)CC1 (configuration not stated),-2,1,-5,-1%,2.1,
[O-]/[N+](=C\C=C\c1ccccc1)c1ccccc1,nt,nt,-3,2%,0.7,
CC1CCN(c2ccc(-c3cccc(NC(=O)c4ccco4)c3)nn2)CC1,nt,nt,31,nt,1.4,
COCCCNC(=S)N(Cc1cccnc1)Cc1ccc(OC)c(OC)c1,1,-23,5,0%,0.0,
Cc1ccc(CNC(=S)Nc2cc(C)ccc2OC(F)F)cc1,-4,nt,-2,1%,4.6,
CC(CS(=O)(=O)c1ccccc1[N+](=O)[O-])N1CCOCC1 (configuration not stated),3,nt,6,4%,-1.7,
O=C(c1ccco1)N(Cc1ccc2c(c1)OCO2)Cc1cc2cc3c(cc2[nH]c1=O)OCO3,nt,nt,-3,nt,-0.7,
CCOC(=O)Cn1nc(-c2ccc(Cl)cc2)ccc1=O,2,-38,-3,2%,9.0,
CN(Cc1ccccc1)C(=S)Nc1ccc2nc3n(c(=O)c2c1)CCCCC3,3,nt,-7,4%,-15,
Cc1cc(/C=N/n2cnnc2)c(C)n1-c1ccc(OCc2ccc(F)cc2)cc1,-18,-43,2,?,-1.1,Arbovirus inh repeat=-14
CCCCN(C)Cc1c(C(=O)N2CCc3ccccc3C2)nc2ccc(Cl)cn12,-2,nt,-7,-3%,1.0,
CCO/N=C(\N)c1[nH]ncc1Br,nt,nt,-2,-9%,-3.6,
COC(=O)c1c(N=CN(C)C)c(C#N)c2n1CCCC2,5,-41,-4,-7%,-0.6,

# Brought forward from above: 2 compounds, followed by the next part.
SMILES,Arbovirus inh,YopH inh,Mtb betalactam,Mtb H37Rv,RecA intein inh,others
CCO/N=C(\N)c1[nH]ncc1Br,nt,nt,-2,-9%,-3.6,
COC(=O)c1c(N=CN(C)C)c(C#N)c2n1CCCC2,5,-41,-4,-7%,-0.6,
COc1cccc(NC(=S)NC(=O)c2cccnc2)c1,nt,nt,-4,nt,1.9,
Cc1nc(N2CCOCC2)nc(Oc2ccccc2)c1[N+](=O)[O-],nt,nt,4,6%,6.6,
Cn1c(=O)n(Cc2ccccc2)c2ccccc21,-5,-21,2,-7%,3.1,
COc1cc(OC)c(NC2c3ccccc3C(=O)N2c2cc(C)ccn2)cc1Cl (configuration not stated),-2,-38,1,3%,-1.9,Arbovirus inh repeat=-3
COc1ccc2c(c1)C(=O)N(c1ccccc1)C(=O)C2,8,-46,-5,-6%,3.3,
Cc1cccc(NC(=S)NCC2CCCO2)c1 (configuration not stated),3,-11,2,3%,-3.6,
CC(=O)N1N=C(c2cccc([N+](=O)[O-])c2)OC1c1ccc(Br)cc1 (configuration not stated),nt,nt,-16,-5%,3.0,
O=C(c1ccc2c(c1)CCN2S(=O)(=O)c1ccccc1)N1CCN(c2ccccc2)CC1,nt,nt,0,nt,9.4,
COCCCNCCCOc1ccc(Cl)cc1C(C)(C)C,-34,-14,7,-3%,3.1,
Cc1ccc(NC2CCCCC2NS(=O)(=O)c2ccc(Cl)cc2)cc1 (configuration not stated),12,3,6,0%,-2.8,
Fc1ccc(-c2nnc(-c3ccc(F)cc3)o2)cc1,nt,nt,-2,nt,-0.3,
C=CCN1C=C/C(=C\C=C(C#N)C#N)c2ccccc21,-8,-10,41,34%,2.5,
O=C1CN(CC(=O)NC(=O)NCc2ccccc2)CCN1,2,-30,-9,-8%,-0.4,
CCCCOc1ccc(C(NC(=O)OCC)NC(=O)OCC)cc1,14,15,1,6%,-1.0,
COc1cc2nc(CN3CCC(Cc4ccccc4)CC3)[nH]c(=O)c2cc1OC,9,nt,3,3%,-1.3,
COc1cc2c(C#N)c(N3CCN(C)CC3)nc(N)c2c(N)n1,0,4,1,2%,-2.3,
CC1(C)CC(O)C(C(O)c2cccc([N+](=O)[O-])c2)C(C)(C)N1 (configuration not stated),-5,-17,-5,0%,-3.2,
Cc1ccc2c(-c3csc(N)n3)c[nH]c2c1,nt,nt,9,nt,4.8,
CSc1nnc(CNC(=O)C23CC4CC(CC(C4)C2)C3)n1Cc1ccccc1,7,-23,2,6%,-0.3,
N#CCCN(C(=O)CO/N=C/c1cccc([N+](=O)[O-])c1)c1ccccc1,6,nt,-2,-13%,0.9,
CCOC(=O)C1=C(N)n2c(s/c(=C\c3ccco3)c2=O)=C(C(=O)OCC)C1c1ccco1 (configuration not stated),-10,-28,-1,-1%,nt,
COc1cnn(-c2ccc(C)cc2)c(=O)c1Br,-4,nt,5,-3%,-2.0,
CC(C)CN(C(=O)COC(=O)c1nc(Cl)ccc1Cl)c1c(N)n(Cc2ccccc2)c(=O)[nH]c1=O,nt,nt,-19,nt,0.1,
CCOc1cccc(CN2CCCC(N3CCN(c4cccc(Cl)c4)CC3)C2)c1O (configuration not stated),nt,nt,-5,nt,0.9,
COc1cc(C(=O)OCC(=O)NCc2ccc(F)cc2)ccc1OCC(C)C,nt,nt,-7,nt,1.3,
C/C=C\C=C/C(=O)Nc1cccc(C2=NOC3(C2)C[C@@H](C(N)=O)N(C(=O)COc2ccc(Cl)cc2)C3)c1 (some centres not stated),nt,nt,74,-6%,1.9,
Cc1ccc2[nH]c3c(N4CCN(Cc5ccc6c(c5)OCO6)CC4)ncnc3c2c1,-29,-39,nt,nt,nt,
COc1ccccc1CCNC(=O)C1CCC(=O)N(C2CCCCCC2)C1 (configuration not stated),nt,nt,0,nt,-0.1,
CC(C)[C@H](NC(N)=O)C(=O)Nc1cccc([N+](=O)[O-])c1,4,nt,0,2%,3.1,
CCN(CC)CCNC(=O)c1ccc(Cl)c(S(=O)(=O)N2CCCCCC2)c1,-10,0,-4,2%,0.6,
COc1ccc(-c2c[n+]3c4n2CCCCC4=C(c2ccc(Br)cc2)C3)cc1,-23,-41,98,nt,24,
Cc1nn(CC(=O)NCCCN2CCOCC2)c(C)c1[N+](=O)[O-],0,-15,-3,6%,-1.9,
CN(C)C(=O)c1c(C(F)(F)F)nn(C)c1Cl,6,nt,0,0%,2.2,
CCOc1ccc(C(=O)OC2CCCN(C)C2)cc1 (configuration not stated),nt,nt,-4,nt,0.6,
C/C(=N/O)c1cc(C(C)(C)C)c(O)c(C(C)(C)C)c1,14,-9,3,-2%,-4.1,

# Part of the list above in order of length of the SMILES, high to low:
SMILES,Arbovirus inh,YopH inh,Mtb betalactam,Mtb H37Rv,RecA intein inh,others
COc1ccc(-c2c[n+]3c4n2CCCCC4=C(c2ccc(Br)cc2)C3)cc1,-23,-41,98,nt,24,
CC(C)[C@H](NC(N)=O)C(=O)Nc1cccc([N+](=O)[O-])c1,4,nt,0,2%,3.1,
CN(C)C(=O)c1c(C(F)(F)F)nn(C)c1Cl,6,nt,0,0%,2.2,
